MLL AF4-AF9 inh: blocks AF4 peptide binding to human AF9; 350,000 tested, 0.47% active; AID 651704; inhibition, % at 10 µM; AlphaScreen, biotin-AF4 peptide binding to FLAG-AF9;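 active = every replicate reaching a set inhibition limit, whatever the replicate mean, cut at about 25% in these data; inconclusive = mean inhibition reaches that limit but some replicates miss it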;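 also: 0% = plate neutral control median and 100% = total signal loss; the record names both 10 and 1 µM as test concentration; the first replicate is given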
Target sequence (P42568 whole entry, looked up): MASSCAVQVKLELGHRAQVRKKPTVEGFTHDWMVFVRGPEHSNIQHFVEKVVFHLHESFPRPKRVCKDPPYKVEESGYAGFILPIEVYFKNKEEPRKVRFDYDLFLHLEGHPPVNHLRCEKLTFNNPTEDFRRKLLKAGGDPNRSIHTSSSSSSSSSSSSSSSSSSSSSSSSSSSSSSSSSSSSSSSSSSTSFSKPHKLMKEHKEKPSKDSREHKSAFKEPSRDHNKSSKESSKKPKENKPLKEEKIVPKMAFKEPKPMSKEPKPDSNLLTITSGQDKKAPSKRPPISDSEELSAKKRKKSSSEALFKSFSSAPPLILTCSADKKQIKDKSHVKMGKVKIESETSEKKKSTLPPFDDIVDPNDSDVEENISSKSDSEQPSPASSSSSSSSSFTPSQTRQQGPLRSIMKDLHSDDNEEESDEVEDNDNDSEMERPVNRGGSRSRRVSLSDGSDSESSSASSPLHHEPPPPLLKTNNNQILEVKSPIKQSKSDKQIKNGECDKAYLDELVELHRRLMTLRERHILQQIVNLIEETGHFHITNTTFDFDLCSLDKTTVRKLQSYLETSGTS
T cruzi repl: T. cruzi replication inhibition; 300,000 tested, 1.4% active; inhibition, % (concentration not given with the values); T. cruzi beta-gal in NIH3T3, luminescence, 90 h; AID 1885;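 active = mean inhibition across valid replicates above about 55%, limit read from the data; inconclusive = mean below that limit but half or more replicates reach it; inactive = mean below it, under half of replicates reach it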;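 also: signal also drops with host cell toxicity which is not excluded here; 0% = plate median of DMSO wells and 100% = zero luminescence signal; higher percent means less beta-gal luminescence so fewer parasites; stock transfer was 50 nL into about 50 µL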
FGF22 binding: binders of recombinant human FGF22 by thermal shift | SYPRO orange fluorescence; percent of sucrose octasulfate shift, DMSO zero | calls only at 9.99 µM | Q9HCT0 | 340,000 tested, 1.5% active;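 active = melting point raised past a set limit in the mean and every replicate; inconclusive = no clear call; three in four hits are not shown here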
Target sequence (Q9HCT0 whole entry, looked up): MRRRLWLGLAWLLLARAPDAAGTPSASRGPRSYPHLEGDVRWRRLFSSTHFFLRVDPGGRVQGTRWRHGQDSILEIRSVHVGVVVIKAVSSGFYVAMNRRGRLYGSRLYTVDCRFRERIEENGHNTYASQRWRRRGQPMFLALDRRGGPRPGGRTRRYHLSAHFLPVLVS
UCH37 DUB inh: human UCH37 deubiquitinating enzyme inhibition; Q9Y5K5; purified proteasome/UCH37, Ub-AMC cleavage fluorescence; inhibition, % (concentration not given with the values); 330,000 tested, 0.33% active; AID 588478;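 active = mean of two replicates above 20%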;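 also: 0% = compound-free wells with enzyme and 100% = wells lacking proteasome; stock transfer was 100 nL into about 20 µL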
Target sequence (Q9Y5K5 whole entry, looked up): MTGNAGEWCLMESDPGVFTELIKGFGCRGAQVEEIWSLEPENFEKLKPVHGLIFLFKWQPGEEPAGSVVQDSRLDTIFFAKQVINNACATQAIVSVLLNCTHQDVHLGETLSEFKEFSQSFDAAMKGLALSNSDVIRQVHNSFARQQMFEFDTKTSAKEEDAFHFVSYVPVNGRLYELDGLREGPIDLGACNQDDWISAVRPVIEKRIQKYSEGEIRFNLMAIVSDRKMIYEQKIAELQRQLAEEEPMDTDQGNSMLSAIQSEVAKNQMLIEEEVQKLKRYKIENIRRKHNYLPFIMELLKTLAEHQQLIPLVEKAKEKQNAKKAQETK
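Signal – fluorescence, ex 355 nm, em 460 nm · System – Proteasome-bound UCH37 · Input – 0.15 nM proteasome as dispensed · Timing – 30 min preincubation with enzyme, 25 min cleavage at room temperature · Read-out basis – percent inhibition of cleavage signal versus uninhibited and no-proteasome wells · Medium – Tris-HCl pH 7.4 with ATP-MgCl2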
Bfl-1 A1 inh: inhibitors of the anti-apoptotic protein A1, read as caspase activation; MEF A1-2A-BIM cells, Caspase-Glo 3/7 luminescence, 3 h; percent of clofoctol response, vehicle zero; caspase activation, % (concentration not given with the values); 330,000 tested, 0.066% active; AID 2462;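 active = over half of replicate activation scores above 10%, or exactly half above 10 with the replicate mean above 10; inconclusive = replicate mean below 10 yet half the replicates above 10; inactive = over half of replicates below 10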;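 also: wells of about 30 µL received 50 nL stock; many hits fall short of the cut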
Ecoli rRNA inh: inhibits bacterial ribosomal RNA function over humanized ribosomes; E. coli WT GFP vs humanized-ribosome RFP mutants, fluorescence, 24 h; active compounds read low; DMSO median 0, no signal -100; 350,000 tested, 1.6% active; GFP signal change (wild-type ribosome), % (test concentration not listed); AID 720706;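 active = significant combined selectivity score with lowered wild-type GFP, culture density cut under 30%, mutant RFP and density less affected; inactive = any of these conditions unmet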; also: one replicate is shown; some compounds called inactive have numbers as strong as hits
Beta apoptosis: beta cell apoptosis inhibition; INS-1E cytokine-induced death, ATP luminescence, 48 h; percent of positive-control rescue, neutral wells zero; 300,000 tested, 0.8% active; protection from apoptosis, % (test concentration not listed); AID 435005;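 active = all replicates at 75% or more, or half of them and the mean; inconclusive = half reach 75% but not the mean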;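 also: 0% = cytokine-treated negative control wells and 100% = positive control rescue; higher means more ATP so stronger rescue from cytokine killing; wells of about 40 µL received 100 nL stock; the first replicate is given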
Ecoli growth: blocks Escherichia coli growth. OD600, 23 h; active compounds read low. OD600 absorbance (no concentration beside the values). 330,000 tested, 0.21% active;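 active = OD600 absorbance below the run mean of sample wells minus 3.6 SD, in any replicate, cut at about 0.56 in these data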;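 also: stock transfer was 300 nL into about 60 µL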
Ecoli rRNA inh OD600: second read-out of Ecoli rRNA inh, no call of its own (marks repeat the call); OD600 change, %; measured here: OD600 growth;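 optical density of the mix in the first replicate; 0 = DMSO median and -100 = no signal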
Ecoli rRNA inh RFP: further read-out of Ecoli rRNA inh, marked with its call; RFP signal change, %; measured here: RFP humanized mutant strains;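 first replicate; 0 = DMSO median and -100 = no signal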
* marks the source's active call; other numbers are inactive results; i = inactive; ? = inconclusive; . = not tested or not shown. The list is partial. The share of hits here may be higher or lower than overall.

SMILES	MLL AF4-AF9 inh	T cruzi repl	FGF22 binding	UCH37 DUB inh	Bfl-1 A1 inh	Ecoli rRNA inh	Ecoli rRNA inh OD600	Ecoli rRNA inh RFP	Beta apoptosis	Ecoli growth
Cc1ccccc1-n1c(O)cc(=O)[nH]c1=S	-0.6	-13	i	3.2	-0.5	11	10	3.6	1	0.68
CCCc1cc(=O)oc2cc(OCC(=O)NCCc3c[nH]c4ccc(OC)cc34)ccc12	-0.2	14	i	0.7	-0.6	.	.	.	8	0.73
O=C(Nc1cccnc1)c1ccc(N2CCOCC2)c([N+](=O)[O-])c1	0.6	-6	i	2.3	0.2	6	2	2.2	-10	0.66
Cc1ccc(C)c(NC(=S)NNC(=O)c2csc3c2CCC(C)C3)c1 (stereo not given)	.	-3	.	2.1	-1.1	.	.	.	12	0.67
CC1(C)CC(=NO)CC(C)(C)N1	.	-14	.	1.5	0.4	.	.	.	0	0.75
COc1ccc(N2C(=O)CSC23C(=O)N(CC(=O)NC2CCCC2)c2ccccc23)cc1 (stereo not given)	1.4	-5	i	-2.2	-0.7	-4	-6	-2.3	-4	0.67
CC(=O)Nc1cc2c3c(c1)CCN3C(=O)CC2	-1.0	-21	i	1.5	1.2	14	12	1.6	-7	0.66
Cc1cccc(C)c1NC(=O)CSc1nnc([C@@H]2CCCN2C(=O)OC(C)(C)C)o1	.	-14	.	1.8	0.4	.	.	.	.	0.75
O=C1CSC(=S)N1c1cccc(Br)c1	-3.6	-10	i	2.3	0.4	-54	-81	-12	-15	0.55
CCN(c1ccccc1)S(=O)(=O)c1cc(NC(=O)Nc2ccccc2C#N)ccc1Cl	14	7	i	-3.3	0.4	-17	-17	7.3	-12	0.7
CCOC(=O)CC1=NN(c2ccccc2)C(=O)C1=c1sc(=C2SC(C)=C(C)N2CC)c(=O)n1CC	40*	.	i	0.2	.	10	9	-2.1	.	0.68
COC(=O)NNC(=O)C12CC3CC(CC(C3)C1)C2	-0.3	-16	i	5.7	-0.1	7	12	2.1	-5	0.65
COc1cc(C(=O)NCCC(=O)NC2CCCCC2)cc(OC)c1OC	0.1	-1	i	-0.4	0.2	4	11	4.2	-1	0.69
CC(C)(C)C1CCc2c(sc3nc(SCC(=O)O)nc(N)c23)C1 (stereo not given)	-1.5	44	i	-5.2	-1.6	-25	-24	-23	3	0.72
CCn1cc(/C=C/C(=O)Nc2ccc(C)cc2Br)cn1	.	-15	.	1.2	-0.4	.	.	.	1	0.62

Single records (already shown).
`O=C(Nc1cccnc1)c1ccc(N2CCOCC2)c([N+](=O)[O-])c1` reads MLL AF4-AF9 inh = 0.6; T cruzi repl = -6; FGF22 binding = i; UCH37 DUB inh = 2.3; Bfl-1 A1 inh = 0.2; Ecoli rRNA inh = 6; Ecoli rRNA inh OD600 = 2; Ecoli rRNA inh RFP = 2.2; Beta apoptosis = -10; Ecoli growth = 0.66
`CC1(C)CC(=NO)CC(C)(C)N1` reads MLL AF4-AF9 inh = .; T cruzi repl = -14; FGF22 binding = .; UCH37 DUB inh = 1.5; Bfl-1 A1 inh = 0.4; Ecoli rRNA inh = .; Ecoli rRNA inh OD600 = .; Ecoli rRNA inh RFP = .; Beta apoptosis = 0; Ecoli growth = 0.75

Additional compounds follow:
SMILES	MLL AF4-AF9 inh	T cruzi repl	FGF22 binding	UCH37 DUB inh	Bfl-1 A1 inh	Ecoli rRNA inh	Ecoli rRNA inh OD600	Ecoli rRNA inh RFP	Beta apoptosis	Ecoli growth
CCN=C1NN=C(c2c[nH]c3ccccc23)CS1	4.7	-15	.	14	-3.9	-8	-4	1.4	-2	0.62
Cc1cc(O)c(C(C)C)cc1N=C1CSC(=O)N1	.	-14	.	0.6	-0.3	.	.	.	2	0.69
Cc1ccccc1CN(C)Cc1cc(=O)oc2c(C)c(C)ccc12	-1.6	31	i	1.8	-0.2	-4	-13	-1.9	-1	0.69
CCc1sc(N(C(=O)Cc2ccccc2)c2ccccc2F)nc1-c1ccc(C)cc1	-0.4	22	.	1.9	1.7	12	8	-0.6	-2	0.72
CCc1nnc(NC(=O)COC(=O)CN2C(=O)c3ccccc3C2=O)s1	.	-3	.	4.9	0.3	.	.	.	1	0.74
COc1ccc(OC)c(S(=O)(=O)N2CCC(C(=O)Nc3ccccc3)CC2)c1	0.9	12	.	1.2	0.5	-8	-11	-0.8	3	0.66
O=C(O)c1ccccc1C(=O)NC1CCCCNC1=O (stereo not given)	-1.3	-16	i	-0.7	1.0	16	-1	-0.9	-9	0.7
CC1CCc2nn(CC(=O)NCCCN3CCCCC3)cc2C1 (stereo not given)	1.5	2	i	-0.8	0.1	2	5	-1.0	0	0.71
CN(CC/C=C1/c2ccccc2CSc2ccccc21)CCCO	.	3	.	5.5	0.6	.	.	.	2	.
Cc1ccc(S(=O)(=O)N2CCN(C(=O)CN3C(=O)c4ccc([N+](=O)[O-])cc4C3=O)CC2)c(C)c1	0.4	-10	i	3.0	-0.2	14	12	1.4	-5	0.64
O=C(CSc1ccc(-c2cccs2)nn1)NCc1ccccc1Cl	.	-2	.	1.4	1.8	.	.	.	3	0.64
Cc1cnccc1CN(C)Cc1nc(Cc2ccccc2Cl)no1	1.7	36	i	-1.3	0.3	-24	-24	3.4	34	0.67
C=CCNC(=O)c1onc(CSc2ccc(C)c(C)c2)c1C(=O)O	?	-2	i	4.5	1.6	-9	-15	-6.0	-5	0.63
CCCCOC(=O)C1=C(C)NC2=C(C(=O)CCC2)C1c1cc(OC)ccc1OC (stereo not given)	.	0	.	-17	0.5	.	.	.	.	0.67
COc1ccccc1CNS(=O)(=O)c1ccc2c(c1)NC(=O)CS2	-0.7	-5	i	1.5	1.2	-10	2	3.0	2	0.72
O=C(Cn1nnc(-c2ccccc2)n1)N/N=C/c1cccc([N+](=O)[O-])c1O	-0.2	-13	i	.	0.7	8	11	0.6	-2	.
O=C(Cn1cnc2c(cnn2-c2ccccc2)c1=O)N1CCN(c2ccc(F)cc2)CC1	.	-1	.	1.1	0.4	.	.	.	3	0.66
CCN(C(=O)c1ccc(=O)n(C)n1)c1c(N)n(Cc2ccccc2)c(=O)[nH]c1=O	-1.4	.	i	1.2	.	12	5	0.6	.	0.68
COc1ccccc1N1CCN(/N=C(\C)c2ccccc2O)CC1	14	3	i	.	0.6	19	19	4.2	-7	.
Cc1cc(C)c(S(=O)(=O)NCc2cn3c(C)csc3n2)cc1C	.	-2	.	1.1	1.6	.	.	.	-2	0.7
Cn1cccc1C(=O)NC(=O)COC(=O)c1cc(Cl)ccc1[N+](=O)[O-]	1.7	-21	i	3.8	-0.8	11	8	1.3	2	0.73
Cc1ccccc1Cn1ccc(NC(=O)c2cc3nc(-c4ccco4)cc(C(F)(F)F)n3n2)n1	.	16	.	-116	0.2	.	.	.	3	.
CCn1c(=O)c(C(=O)NNC(=O)Cc2ccccc2)c(O)c2ccccc21	0.0	-7	i	0.2	-0.8	4	-3	-1.8	-2	0.74
CC[C@H](C)[C@@H](CN[C@H](CCCCNC)CNC)NCC1CCCC1	-0.7	-10	i	2.8	0.6	11	15	1.9	-5	.
O=C(COC(=O)C1=COCCO1)Nc1cccc(Oc2ccccc2)c1	.	5	.	4.2	-1.3	.	.	.	0	0.67
Cc1cc(C(=O)NNC(=O)/C=C/c2ccco2)c(C)o1	6.6	.	i	2.8	.	3	10	2.6	.	0.59
COc1ccc(NC(=O)Nc2c(C)n(C)n(-c3ccccc3)c2=O)c(OC)c1	-0.9	0	i	-0.3	0.2	6	7	1.6	0	0.69
CCc1ccc(NC(=S)N2CCCCCCC2)cc1	1.0	-19	i	2.7	2.3	-24	-24	-4.0	-2	0.73
O=C(Nc1ccccn1)c1ccc(-c2ccccc2)cc1	-5.7	7	i	1.4	-7.8	-9	-6	-3.6	-1	0.59
CC1=C(C#N)C(NC(=O)c2ccc(C)cc2)(C(F)(F)F)C(=O)N1 (stereo not given)	.	1	.	-0.3	0.2	.	.	.	3	0.66
c1cnc(NC2C3CC4CC(C3)CC2C4)nc1 (stereo not given)	-7.3	6	i	-0.2	1.3	2	11	1.6	-8	0.67
COc1ccc(-c2noc(CCC(=O)NCc3cc(Br)ccc3OC)n2)cc1	.	6	.	3.1	-0.6	.	.	.	-10	0.8
Cc1ccccc1NC(=O)C[n+]1cc(-c2ccccc2)n2c1CCC2	-1.9	-1	i	3.1	-0.7	20	-2	3.0	-1	0.65
COc1ccc(C(=O)CSc2nc3c(c(=O)n(C)c(=O)n3C)n2C)cc1	.	-5	.	5.7	0.5	.	.	.	-2	0.69
CCN1C(=O)[C@H]2[C@@H](c3ccc(C)cc3)N3C(=O)N(c4cccc(Br)c4)C(=O)[C@@]3(CC)[C@H]2C1=O	2.3	-14	i	2.1	-0.5	1	-7	9.7	-5	.
COc1ccc(N2CCN(C(=O)CCS(=O)(=O)c3ccc(C)cc3)CC2)cc1	1.4	-9	i	1.8	0.2	-4	-5	2.4	-2	0.69
Cc1ccc(-c2nc3c(=O)n(-c4ccccc4)c4c(c(=O)n(C)c(=O)n4C)c3o2)cc1	-3.1	-25	i	-39	1.2	-2	2	3.2	1	0.66
Cc1cc(C)nc(SC(C(=O)O)c2ccccc2)n1 (stereo not given)	-0.2	-13	i	1.8	-0.4	9	13	-0.5	.	0.68
COC(=O)C(Cc1c[nH]c2ccccc12)NC(=O)CNC(C)=O (stereo not given)	.	-4	.	-0.7	0.0	.	.	.	-4	0.66
O=c1cc(CSc2nnnn2-c2ccccc2)nc2scc(-c3ccccc3)n12	.	15	.	2.0	-1.2	.	.	.	-1	0.7
Cc1nn(Cc2ccccc2)c(C)c1C(=O)Nc1ccc(N2CCOCC2)cc1	.	4	.	1.6	1.0	.	.	.	-2	0.7
O=C(NC(Cc1ccc2c(c1)OCO2)C(=O)NC(Cc1ccccc1)C(=O)O)c1ccccc1 (stereo not given)	.	-3	.	-1.1	-0.1	.	.	.	-2	0.69
COc1ccc(-c2n(Cc3ccccc3)c3ccccc3[n+]2Cc2ccccc2)cc1	6.0	45	i	1.2	0.8	-46	-78	-14	113*	0.69
COc1ccc(N2CCN(CCCNC(=O)C3(S(=O)(=O)c4ccc(Cl)cc4)CC3)CC2)cc1	.	3	.	0.9	-0.3	.	.	.	2	0.68
COc1cccc(C(=O)NCCN2C(=O)S/C(=C/c3cccs3)C2=O)c1OC	0.3	7	i	14	0.1	-39*	-14*	-3.0*	-3	0.65
Cc1c(C(=O)O)cccc1-n1c(C)cc(/C=N/Nc2ccc([N+](=O)[O-])cn2)c1C	3.6	-2	.	.	-0.7	16	14	4.6	2	.
CNc1snc(C)c1C(=O)OCC(=O)Nc1ccc(C)cc1F	12	.	i	-0.3	.	2	11	2.7	.	0.69
Cc1ccccc1OCCNC(=O)c1ccco1	1.4	-5	i	2.0	-0.2	0	3	0.4	2	0.62
CC(OC(=O)/C=C/c1cccc(Cl)c1)C(=O)NC1CCCCC1C (stereo not given)	-2.9	6	i	2.9	0.1	13	15	1.5	-1	0.68
Cc1cccc(NC(=O)/C(C#N)=C\c2ccc(C(=O)O)cc2)c1	-5.0	-13	i	2.5	1.2	9	10	2.3	-8	0.69

Screening data deposited in PubChem by several laboratories.
